SIRT5 block = SIRT5 desuccinylase inhibitors, primary screen, biochemical, fluorescence imaging, single point, set 5 | inhibition, % at 15 µM | actives 1.1% (n = 330,000) | NAD-dependent protein deacylase sirtuin-5, mitochondrial (Homo sapiens), Q9NXA8 | Purified SirT5, succinyl-peptide AMC, trypsin-coupled fluorescence; in the data active = inhibition above about 15%
E-sel inducer = E-selectin induction in HUVECs, primary screen, imaging, HUVEC, immunofluorescence imaging, single point. P16581. normalized: neutral wells 0, TNF-alpha wells 100. activation, % at 7.58 µM. actives 0.37% (n = 260,000). AID 686992, 2013;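 active = mean E-selectin-positive cell signal at least 10% of the positive control, reached in at least 60% of replicates, without over 20% cell loss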;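 also: in these data hits start at about 27%; measured in HUVEC primary endothelial cells; signal is the percent of cells scored E-selectin positive by PE staining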
Target sequence (P16581 whole entry, looked up): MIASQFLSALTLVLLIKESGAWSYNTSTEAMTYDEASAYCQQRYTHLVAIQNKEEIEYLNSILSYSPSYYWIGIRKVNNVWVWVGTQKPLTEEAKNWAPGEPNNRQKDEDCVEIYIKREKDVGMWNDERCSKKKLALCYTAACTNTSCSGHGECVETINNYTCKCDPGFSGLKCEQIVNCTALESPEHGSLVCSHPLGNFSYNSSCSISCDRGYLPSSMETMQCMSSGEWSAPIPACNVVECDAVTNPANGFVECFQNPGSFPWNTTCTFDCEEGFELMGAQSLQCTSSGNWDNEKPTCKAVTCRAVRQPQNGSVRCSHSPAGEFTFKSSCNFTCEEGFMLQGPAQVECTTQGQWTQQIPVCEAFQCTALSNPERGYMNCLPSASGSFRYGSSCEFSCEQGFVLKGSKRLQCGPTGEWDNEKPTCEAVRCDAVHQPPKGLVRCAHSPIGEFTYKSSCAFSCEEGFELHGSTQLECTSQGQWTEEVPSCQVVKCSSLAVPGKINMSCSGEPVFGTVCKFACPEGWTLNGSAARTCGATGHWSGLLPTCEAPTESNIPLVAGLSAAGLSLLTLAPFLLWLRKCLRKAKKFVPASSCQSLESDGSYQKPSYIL
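Read-out: % PE-positive cells | Test system: HUVEC | Doses: One compound dose added by pin transfer | Buffer or medium: EGM-2 over gelatin coat | Signal: Immunofluorescence imaging | Benchmarks: TNF-alpha, DMSO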
S100A4 inh HTS = inhibitors of S100A4-myosin IIA peptide binding, primary screen, biochemical, fluorescence polarization, TAMRA-MyoIIA peptide. Protein S100-A4 (Homo sapiens), P26447. inhibition, % at 10.7 µM. actives 0.14% (n = 360,000);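 active = mean inhibition of at least 70% across replicates, with every replicate also reaching that level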
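System – human S100A4 monomer protein, biochemical binding assay · Buffer or medium – Calcium-containing HEPES buffer, pH 7.2 · Timing – 5 min between mix addition and reading · Also added – TAMRA-labelled myosin IIA heavy-chain peptide probe, 5 nM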
ERp5 inh = inhibitors of ERp5-driven insulin aggregation, primary screen, biochemical, turbidity, absorbance 650 nm, single point. Protein disulfide-isomerase A6 (Homo sapiens), Q15084. 90 min. inhibition, % at 9.99 µM. actives 0.05% (n = 350,000). AID 651711, 2012;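 active = mean replicate inhibition above about 25%, with every replicate also reaching it, limit read from the data, passing the limit was not always enough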
Active calls of the source: *; nt = not tested or not shown.

| mol | SIRT5 block | E-sel inducer | S100A4 inh HTS | ERp5 inh |
| --- | --- | --- | --- | --- |
| O=C(OCc1ccccc1)N1CCC2CC1c1ccc(N3CCN(Cc4ccccc4)CC3)cc12 (stereo not given) | -2 | nt | -1 | 2 |
| O=c1ccc2cccc([N+](=O)[O-])c2[nH]1 | nt | -0.2 | -5 | 4 |
| O=C1NC[C@@H](c2ccccc2)OC(=O)[C@@H](Cc2ccc(F)cc2)CC/C=C/C[C@@H]1CC(=O)N(CCO)Cc1ccccc1 | nt | 0.3 | 1 | -1 |
| O=C1NC[C@H](c2ccccc2)OC(=O)[C@@H](Cc2ccc(F)cc2)CC/C=C/C[C@H]1CC(=O)N(CCO)Cc1ccccc1 | 4 | -0.1 | -8 | -1 |
| Cc1nc2ccccc2n1S(=O)(=O)c1ccc(F)cc1 | -3 | nt | 4 | 0 |
| CC(=O)Oc1ccc(-c2cc3ccc(OC(C)=O)cc3oc2=O)cc1 | -9 | -0.1 | -4 | -1 |
| COc1cc2c(cc1OC)C1C(=O)c3cc(OS(C)(=O)=O)c(OC)cc3C1N(C)C2=O (stereo not given) | nt | -0.4 | 3 | 7 |
| CC1(C)[C@H](C(=O)O)N2C(=O)C[C@H]2S1(=O)=O | 0 | nt | 4 | 0 |
| Nc1nc2ccccc2n1S(=O)(=O)c1ccc(Cl)cc1 | 4 | nt | -1 | 4 |
| O=C1NC[C@@H](c2ccccc2)OC(=O)[C@H](Cc2ccc(F)cc2)CC/C=C/C[C@H]1CC(=O)N(CCO)Cc1ccccc1 | nt | 0.0 | 0 | -2 |
| COC(=O)Nc1sc(C)nc1-c1ccccc1 | -5 | nt | -2 | 6 |
| O=C1NC[C@H](c2ccccc2)OC(=O)[C@H](Cc2ccc(F)cc2)CC/C=C/C[C@@H]1CC(=O)N(CCO)Cc1ccccc1 | 1 | 0.0 | -3 | 4 |
| O=C1NC[C@@H](c2ccccc2)OC(=O)[C@@H](Cc2ccc(F)cc2)CC/C=C/C[C@H]1CC(=O)N(CCO)Cc1ccccc1 | 2 | 0.1 | -6 | 3 |
| O=C(O)C1=C[C@@H](O)[C@@H](O)[C@H](O)C1 | -4 | 0.2 | -2 | 3 |

Sorted by SMILES length (lowest first): three of the compounds above
| mol | SIRT5 block | E-sel inducer | S100A4 inh HTS | ERp5 inh |
| --- | --- | --- | --- | --- |
| Cc1nc2ccccc2n1S(=O)(=O)c1ccc(F)cc1 | -3 | nt | 4 | 0 |
| O=C1NC[C@H](c2ccccc2)OC(=O)[C@H](Cc2ccc(F)cc2)CC/C=C/C[C@@H]1CC(=O)N(CCO)Cc1ccccc1 | 1 | 0.0 | -3 | 4 |
| O=C1NC[C@@H](c2ccccc2)OC(=O)[C@@H](Cc2ccc(F)cc2)CC/C=C/C[C@@H]1CC(=O)N(CCO)Cc1ccccc1 | nt | 0.3 | 1 | -1 |

Results in E-sel inducer and ERp5 inh (four entries from above):
mol	E-sel inducer	ERp5 inh
O=C1NC[C@@H](c2ccccc2)OC(=O)[C@@H](Cc2ccc(F)cc2)CC/C=C/C[C@@H]1CC(=O)N(CCO)Cc1ccccc1	0.3	-1
O=C1NC[C@H](c2ccccc2)OC(=O)[C@@H](Cc2ccc(F)cc2)CC/C=C/C[C@H]1CC(=O)N(CCO)Cc1ccccc1	-0.1	-1
Cc1nc2ccccc2n1S(=O)(=O)c1ccc(F)cc1	nt	0
CC(=O)Oc1ccc(-c2cc3ccc(OC(C)=O)cc3oc2=O)cc1	-0.1	-1

2 entries drawn at random from the list so far, as already listed:
| mol | SIRT5 block | E-sel inducer | S100A4 inh HTS | ERp5 inh |
| --- | --- | --- | --- | --- |
| O=C1NC[C@H](c2ccccc2)OC(=O)[C@H](Cc2ccc(F)cc2)CC/C=C/C[C@@H]1CC(=O)N(CCO)Cc1ccccc1 | 1 | 0.0 | -3 | 4 |
| CC(=O)Oc1ccc(-c2cc3ccc(OC(C)=O)cc3oc2=O)cc1 | -9 | -0.1 | -4 | -1 |

Compound activity (PubChem BioAssay)

Only part of the results is shown. The share of hits here may be higher or lower than overall.
